# Calb FLC = affects C. albicans growth with fluconazole | 300,000 tested, 0.57% active | growth inhibition, % (test concentration not listed) | C. albicans CaCi-2 (fluconazole-resistant clinical isolate) + fluconazole, Alamar Blue growth, 48 h | AID 1979;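 active = most replicates above 75%; inconclusive = exactly half above 75%; inactive = most below 75%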;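 also: all wells also contain fluconazole at 8 µg/ml as a sub-toxic cotreatment; 0% = median of DMSO wells and 100% = median of geldanamycin control wells; wells of about 8 µL received 7.5 nL stock; the first replicate is given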
# Vif TR-FRET = inhibitors of Vif binding to APOBEC3G peptide, primary screen, biochemical, TR-FRET, GST-Vif 1-94, biotin-A3G peptide, dose response retest (AID 1117319); TR-FRET GST-Vif / biotin-A3G peptide binding; higher % means a stronger effect; test concentration not given here; strong numbers were not always called active; inhibition, %, or IC50 in µM where a hit was titrated; 260,000 tested, 0.57% active;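 active = above the screen mean plus three standard deviations and confirmed in dose response; inconclusive = results disagree or hit not tested in dose response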;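 also: Vif residues 1-94 fused to GST binding biotinylated APOBEC3G peptide 110-148; 0% = full assay without inhibitor and 100% = GST in place of GST-Vif; retest series ran down from 100 µM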
# AF4-AF9 inh = inhibitors of human MLL-AF4/AF9 interaction; P42568; AlphaScreen, biotin-AF4 peptide binding to FLAG-AF9; inhibition, % at 10 µM; 350,000 tested, 0.47% active; AID 651704;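 active = every replicate reaching a set inhibition limit, whatever the replicate mean, cut at about 25% in these data; inconclusive = mean inhibition reaches that limit but some replicates miss it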;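 also: 0% = plate neutral control median and 100% = total signal loss; the record names both 10 and 1 µM as test concentration; the first replicate is given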
# Target sequence (P42568 whole entry, looked up): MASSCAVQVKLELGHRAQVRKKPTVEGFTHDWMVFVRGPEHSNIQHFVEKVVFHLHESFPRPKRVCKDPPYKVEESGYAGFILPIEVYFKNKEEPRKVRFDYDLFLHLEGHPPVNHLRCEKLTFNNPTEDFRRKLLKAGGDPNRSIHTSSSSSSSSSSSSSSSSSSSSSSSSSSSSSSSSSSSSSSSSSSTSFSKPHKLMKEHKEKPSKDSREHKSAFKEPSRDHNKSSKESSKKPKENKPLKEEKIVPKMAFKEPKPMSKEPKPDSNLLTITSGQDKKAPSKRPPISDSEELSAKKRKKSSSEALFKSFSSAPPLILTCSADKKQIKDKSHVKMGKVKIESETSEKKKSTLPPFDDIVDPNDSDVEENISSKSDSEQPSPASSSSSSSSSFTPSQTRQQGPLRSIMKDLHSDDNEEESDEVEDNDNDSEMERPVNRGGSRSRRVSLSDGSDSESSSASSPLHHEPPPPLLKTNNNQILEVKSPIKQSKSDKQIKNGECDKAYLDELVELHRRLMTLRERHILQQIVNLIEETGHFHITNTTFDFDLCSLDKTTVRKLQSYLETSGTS
# Bfl-1 A1 inh = inhibitors of the anti-apoptotic protein A1, read as caspase activation; 330,000 tested, 0.066% active; caspase activation, % (test concentration not listed); MEF A1-2A-BIM cells, Caspase-Glo 3/7 luminescence, 3 h; percent of clofoctol response, vehicle zero;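 active = over half of replicate activation scores above 10%, or exactly half above 10 with the replicate mean above 10; inconclusive = replicate mean below 10 yet half the replicates above 10; inactive = over half of replicates below 10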;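 also: wells of about 30 µL received 50 nL stock; many hits fall short of the cut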
# Beta apoptosis = blocks beta cell apoptosis | INS-1E cytokine-induced death, ATP luminescence, 48 h; percent of positive-control rescue, neutral wells zero | protection from apoptosis, % (concentration not given with the values) | 300,000 tested, 0.8% active | AID 435005;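 active = all replicates at 75% or more, or half of them and the mean; inconclusive = half reach 75% but not the mean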;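 also: 0% = cytokine-treated negative control wells and 100% = positive control rescue; higher means more ATP so stronger rescue from cytokine killing; wells of about 40 µL received 100 nL stock; the first replicate is given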
# Ecoli rRNA inh = inhibits bacterial ribosomal RNA function over humanized ribosomes; E. coli WT GFP vs humanized-ribosome RFP mutants, fluorescence, 24 h; hits give low values; DMSO median 0, no signal -100; GFP signal change (wild-type ribosome), % (test concentration not listed); 350,000 tested, 1.6% active;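 active = significant combined selectivity score with lowered wild-type GFP, culture density cut under 30%, mutant RFP and density less affected; inactive = any of these conditions unmet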; also: one replicate is shown; some compounds called inactive have numbers as strong as hits
# RanGTP-Imp inh = disruptors of Ran-importin-beta complex formation – biochemical, FRET, CFP-Ran, YFP-importin-beta, homogeneous, primary screen. 300,000 tested, 1.1% active. AID 2216. cell-free CFP-Ran/YFP-importin-beta FRET ratio. inhibition, % (concentration not given with the values);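 active = most replicates above 15%; inconclusive = exactly half above 15%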;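 also: 0% = DMSO wells and 100% = Ran loaded with GDP instead of GTP; wells of about 40 µL received 100 nL stock; the first replicate is given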
# T cruzi repl = T. cruzi replication inhibition | T. cruzi beta-gal in NIH3T3, luminescence, 90 h | inhibition, % (no concentration beside the values) | 300,000 tested, 1.4% active | AID 1885;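 active = mean inhibition across valid replicates above about 55%, limit read from the data; inconclusive = mean below that limit but half or more replicates reach it; inactive = mean below it, under half of replicates reach it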;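 also: signal also drops with host cell toxicity which is not excluded here; 0% = plate median of DMSO wells and 100% = zero luminescence signal; higher percent means less beta-gal luminescence so fewer parasites; stock transfer was 50 nL into about 50 µL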
# Ecoli rRNA inh OD600 = also measured in Ecoli rRNA inh; calls as there; OD600 change, %; measured here: OD600 growth;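 optical density of the mix in the first replicate; 0 = DMSO median and -100 = no signal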
# Ecoli rRNA inh RFP = further read-out of Ecoli rRNA inh, marked with its call; RFP signal change, %; measured here: RFP humanized mutant strains;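 first replicate; 0 = DMSO median and -100 = no signal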
# * = called active by the depositor; ? = inconclusive; / = no result given; & = joins results of further samples. The list is partial. The share of hits here may be higher or lower than overall.
SMILES,Calb FLC,Vif TR-FRET,AF4-AF9 inh,Bfl-1 A1 inh,Beta apoptosis,Ecoli rRNA inh,Ecoli rRNA inh OD600,Ecoli rRNA inh RFP,RanGTP-Imp inh,T cruzi repl
COC(=O)C1CCN(C(=O)COC(=O)CC(NC(N)=O)c2ccc(Cl)cc2)CC1 (stereo unspecified),2.6,5.6%,/,-0.2,-4.9,/,/,/,6.1,-6.9
CCOc1cc(C(=O)OCC(=O)Nc2cccc(S(=O)(=O)NC3=NCCCCC3)c2)cc(OCC)c1OCC,/,/,3.8,-0.8,3.2,-4.5,-5.9,1.3,/,/
O=C(NCc1nnnn1-c1ccc(F)c(F)c1)c1ccc2c(c1)OCO2,-9.1,3.6%,0.0,0.0,-3.0,3.6,4.3,-1.1,-1.0,-6.6
CN(C)c1nc2c(c(=O)[nH]c(=O)n2C)n1CCCc1ccccc1,-0.1,/,-1.5,-0.3,1.1,3.6,4.1,0.1,1.7,-10.9
CCC(=O)Oc1ccc(C(=O)Nc2cccc(C(=O)NC(C)(C)C)c2)cc1,-0.1,-9.0%,/,0.1,-3.7,/,/,/,-0.6,-4.0
CC1(C)CC(NC(=O)c2ccccn2)CC(C)(C)N1O,1.3,-4.4%,1.3,0.8,4.1,7.1,5.6,1.7,2.7,-10.0
N#Cc1c(-c2ccccc2)nc(SCC(=O)N(c2ccccc2)c2ccccc2)[nH]c1=O,-1.2,/,3.2,0.7,-1.3,-49.3*,-8.8*,-12.9*,2.2,6.0
COc1ccc(CCC(C(O)C(F)(F)F)S(=O)c2ccccc2)cc1 (stereo unspecified),11.2,-6.2%,/,-0.1,-8.9,/,/,/,0.0,5.5
Cc1cc(C)c(C)c(OCCCOc2cccc3cccnc23)c1,-5.4,85.8%,/,-0.1,-0.1,/,/,/,0.4,25.3
C[C@H](CO)N1C[C@H](C)[C@@H](CN(C)S(=O)(=O)c2cn(C)cn2)Oc2ccc(NC(=O)Cc3ccccc3)cc2C1=O,/,/,1.0&-3.5,-0.5,-4.6,-1.7&0.1,-1.6&10.0,-9.9&2.1,/,/
CN(C)N1C(N)=C(C#N)C(c2ccc(F)cc2)C2=C1CCCC2=O (stereo unspecified),4.0,-1.6%,-7.0,0.1,0.4,9.6,1.1,1.4,-4.6,-5.5
O=C(NCC(=O)N1CCN(Cc2ccccc2)CC1)c1ccc(Br)cc1,11.0,/,-1.5,1.6,8.4,0.9,12.4,3.9,4.7,16.3
COCCc1nn2c(=O)cc(COC(=O)c3cc(OC)c(OC)c(OC)c3)nc2s1,-4.0,-8.4%,1.4,-0.9,1.2,0.3,4.4,-5.3,2.4,-11.1
Cc1ccc(C2C(/C=C3/SC(=S)NC3=O)=C(c3cccs3)Oc3ccccc32)cc1 (stereo unspecified),4.3,6.3%,17.1,0.4,17.6,0.5,-5.8,-4.9,-8.4,-11.5
COc1cc2[nH]c(=O)n(CCCCCC(=O)NCCc3c[nH]c4ccccc34)c(=O)c2cc1OC,-19.4,2.6%,/,-0.2,1.7,/,/,/,-6.7,-7.5
CC1CCCC/C1=N\NS(=O)(=O)c1ccc(Br)cc1 (stereo unspecified),0.4,0.5%,/,0.3,-1.4,/,/,/,5.1,-0.1
COc1ccc(C(=O)N/N=C/c2ccc(OC(=O)c3cccs3)cc2)cc1,0.3,1.4%,2.7,0.0,-1.8,3.8,2.2,-7.9,0.3,-11.1
COc1cc(C#Cc2c(-c3cncn3C)n(C)c3ccc(-c4cnc(OC)nc4)cc23)cc(OC)c1,/,/,12.2,0.4,24.8,8.0,9.2,-0.4,/,/
CC(CCc1ccccc1)NC(=O)c1cc2sccc2n1C (stereo unspecified),2.2,-4.8%,1.0,-2.2,-5.2,-18.5,-9.2,-9.1,2.4,19.0
O=C(OCC(=O)c1c[nH]c2ccccc12)c1cc(Br)ccc1O,8.2,-1.6%,0.2,0.2,-2.3,-15.8,-16.9,-3.8,-2.6,-11.8
Cc1ccc(C(=O)/C=C\C(=O)c2ccc(C)cc2)cc1,47.0,5.4%,3.4,3.1,-5.8,7.9,-4.0,-4.0,6.6,70.8*
CSc1ncc(C(=O)Nc2ccc(Br)cn2)c(C)n1,8.8,3.7%,-3.7,0.1,3.1,-1.3,6.8,1.0,0.6,6.5
O=S(=O)(c1ccc(NC(=S)N/N=C/c2ccc(Oc3ccccc3)cc2)cc1)N1CCOCC1,7.0,-12.9%,-4.2,-0.4,5.0,-10.7,-5.8,0.4,1.7,-1.3
OCC[C@@H]1C[C@@H](O)[C@H](O)[C@@]2(OCCc3ccccc32)O1,12.4,/,1.0,0.3,4.3,6.1,6.6,2.2,7.1,-18.5
CCn1nc(-c2ccccc2)c2nc3ccccc3nc21,7.9,-5.4%,/,-0.1,-1.4,/,/,/,-35.6,15.6
CC(C)c1nc2c(s1)CCc1onc(-c3cccc([N+](=O)[O-])c3)c1-2,-5.9,/,1.1,1.2,4.6,12.6,-3.4,1.5,3.5,-9.7
O=C(Nc1cccc(C(F)(F)F)c1)Nn1cnnc1,-2.1,/,-1.5,1.1,-7.0,18.0,6.8,0.6,3.4,-13.0
COc1ccc(Nc2nc(N)c([N+](=O)[O-])c(N3CCN(C)CC3)n2)cc1,-3.9,0.5%,10.6,0.3,-4.9,-6.1,4.4,-2.3,3.4,-6.0
CCN(CC(=O)NCc1ccc(F)cc1)C(=O)C1CCN(C(=O)Nc2ccccc2)CC1,-16.7,0.2%,/,-0.6,-0.4,/,/,/,-1.1,-1.3
O=C(Nc1ccc(F)cc1)Nc1nnc(-c2ccncc2)s1,-11.2,21.4%,/,-0.8,54.1,/,/,/,-2.7,-27.8
CCOC(=O)N1CCC(N2Cc3cccc(C(=O)NCc4ccccn4)c3C2=O)CC1,2.3,-2.9%,-4.4,0.3,4.0,-0.7,0.8,-2.1,-3.6,8.1
COC(=O)C1=CN(C)C=C(C(=O)OC)C1c1ccsc1,24.8,-1.7%,/,/,/,/,/,/,33.2*,-6.2
O=C(c1ccc(Cl)cc1)N1CCN(c2ccnc3cc(Cl)ccc23)CC1,99.1*,-9.6%,1.0,/,/,-29.4*,-6.6*,4.1*,-4.7,69.3*
Cc1ccc(C(=O)NC(=S)Nc2ccccc2C(F)(F)F)cc1,-2.3,2.6%,/,-0.1,5.6,/,/,/,-0.1,5.3
COc1cccc(-n2nnnc2SCC(=O)NC2CCCCC2)c1,-17.8,/,-0.9,0.0,-1.6,2.8,5.9,-1.4,?,-6.5
COC(=O)C1C(O)=C(C=NCC(C)N=CC2=C(O)C(C(=O)OC)C(C)(C)CC2=O)C(=O)CC1(C)C (stereo unspecified),5.1,0.6%,/,0.2,-7.9,/,/,/,7.9,-0.2
O=[N+]([O-])c1cccc(OCCN2CCC(Cc3ccccc3)CC2)c1,?,/,7.6,?,-1.5,-12.1,-5.7,-1.9,-0.4,38.9
N#CC(c1ccc(Cl)cc1)(c1ncc(C(F)(F)F)cc1Cl)N1CCOCC1 (stereo unspecified),1.0,6.6%,/,0.0,2.3,/,/,/,5.8,4.1
COc1cccc(/C=C/C2=CC(C)(C)NC(=S)N2)c1,9.1,/,10.9,-0.4,-4.9,-4.5,0.5,1.4,-0.2,5.5
COc1ccc(-n2nnnc2-c2cccnc2)cc1,-10.4,-2.7%,/,-0.1,-4.0,/,/,/,-0.1,-16.3
CCN(C(=O)COC(=O)c1ccccc1Cc1ccccc1)C1CCS(=O)(=O)C1 (stereo unspecified),0.5,-6.4%,-1.3,-0.9,-3.9,-0.4,-0.6,-0.9,-0.6,6.7
COCCNC(=O)CN(C(=O)CCC(=O)Nc1ccccn1)c1ccccc1F,-2.3,-0.9%,1.5,0.0,-9.9,15.9,11.4,1.3,3.5,-3.7
COc1ccccc1NS(=O)(=O)c1cccc(C(=O)NCC(C)(C)N2CCOCC2)c1,-4.1,/,-2.2,1.2,2.1,16.4,1.8,4.5,4.3,3.7
CCOCCCNC(=O)c1ccc(Cn2c(=O)[nH]c3ccsc3c2=O)cc1,-2.8,11.1%,4.0,1.0,-9.9,-46.8,-50.2,-21.2,-1.6,1.8
Cc1ccccc1NC(=O)OCCN1CCN(Cc2ccccc2)CCC1=O,-2.7,19.6%,2.9,0.4,-14.0,-3.3,5.5,9.7,-6.0,-0.3
Cn1c(SCC(=O)NCC2CCCO2)nnc1-c1cccc(NC(=O)c2ccccc2F)c1 (stereo unspecified),-3.4,/,-2.6,-0.2,-2.4,5.2,0.7,2.8,3.5,-6.9
CCCN1C(=O)c2ccccc2NC1c1ccc(C)cc1 (stereo unspecified),-3.7,-2.1%,-0.5,0.1,/,-25.5,-45.0,-5.9,0.4,-2.9
O=C(CCN1C(=O)c2cccc3cccc(c23)C1=O)NCc1cccnc1,36.6,8.3%,-1.7,0.0,-0.4,9.5,0.5,0.8,0.8,6.6
CCOc1ccc(/C=C/C(=O)Nc2ccc3[nH]c(=O)[nH]c3c2)cc1,13.7,-11.7%,/,0.6,2.7,/,/,/,13.8,-5.5
CCOC(=O)N1CCC(N(CCN(C)C)C(=S)Nc2ccc(OCC)cc2)CC1,-10.8,-1.5%,-3.3,0.4,-1.1,6.8,11.5,-0.4,2.3,3.6
C=C(C)COc1cc2oc(=O)c(CC(=O)N3C[C@H]4C[C@@H](C3)c3cccc(=O)n3C4)c(C)c2cc1Cl,-2.4,/,-1.4,-0.1,7.2,-16.4,-10.9,4.4,6.4,25.7
OCCN1CCN(c2nc(N3CCCCC3)nc(N3CCCCC3)n2)CC1,-0.3,6.0%,/,2.5,-1.7,/,/,/,0.6,17.7
COc1cc(CNC2CCCCCCC2)cc(Cl)c1OC,-8.8,/,2.3,-0.3,0.9,1.1,-5.2,2.5,1.2,27.6
COCCn1c(=O)[nH]c2cc(C(=O)N3CCN(c4cccc(C(F)(F)F)c4)CC3)ccc2c1=O,4.5,/,2.5,0.0,/,-2.0,-2.9,-1.8,-11.1,13.8
CCCn1nnc(NC(=O)COc2ccc(Cl)cc2)n1,-4.3,-0.2%,/,-0.2,-7.1,/,/,/,-4.1,-1.2
CC(=O)Nc1ccc(NC(=O)C(C)OC(=O)CNS(=O)(=O)/C=C/c2ccc(C)cc2)cc1 (stereo unspecified),0.8,/,-3.2,0.4,2.4,2.6,8.7,0.9,/,-14.8
CCOC(=O)c1c(NC(=O)Cn2nc([N+](=O)[O-])c(Br)c2C)sc2c1CCC(C)C2 (stereo unspecified),2.2,-0.5%,/,1.4,7.2,/,/,/,4.9,-18.7

# Assay outcomes as filed in PubChem BioAssay.
